# D2 potentiator = potentiates the human D2 dopamine receptor allosterically; DiscoveRx D2 beta-arrestin cells, luminescence, 90 min; 100% = 57 uM dopamine signal; 360,000 tested, 0.23% active; P14416; potentiation, % (test concentration not listed); AID 624464; active = potentiation of 50% or more; inconclusive = 30% to 50%; inactive = 30% or less;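 also: compound concentration not given in the record; tested on top of an EC20 dose of dopamine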
# Target sequence (P14416 whole entry, looked up): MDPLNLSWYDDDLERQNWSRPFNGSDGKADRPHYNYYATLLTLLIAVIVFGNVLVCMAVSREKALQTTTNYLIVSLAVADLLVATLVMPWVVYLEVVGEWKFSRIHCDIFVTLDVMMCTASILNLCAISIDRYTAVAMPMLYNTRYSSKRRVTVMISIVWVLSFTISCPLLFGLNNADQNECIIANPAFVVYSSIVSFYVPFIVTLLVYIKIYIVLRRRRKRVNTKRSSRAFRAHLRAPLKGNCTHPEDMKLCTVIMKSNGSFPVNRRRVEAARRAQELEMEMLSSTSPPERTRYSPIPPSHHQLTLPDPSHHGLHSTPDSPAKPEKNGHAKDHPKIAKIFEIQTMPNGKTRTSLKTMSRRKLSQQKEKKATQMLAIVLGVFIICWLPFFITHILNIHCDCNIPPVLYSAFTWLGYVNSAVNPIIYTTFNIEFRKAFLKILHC
#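 PathHunter D2 cells, attached overnight at 37 deg C, received compound in DMSO plus dopamine at EC20 (50 nM final) for 90 min at 37 deg C. Beta-arrestin recruitment was read as luminescence after 1 h with detection reagent at ambient temperature.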
# Six1-Eya2 inh = inhibitors of human Six1/Eya2 interaction; Q15475+O00167; AlphaScreen GST-Six1/His-Eya2 binding, biochemical; active compounds read low; control for the full effect not named in the record; activity change, % (test concentration not listed); 360,000 tested, 0.56% active; AID 651725; in the data active = activity change below about -65%; inconclusive = about -30% to -65%; inactive = above about -30%; also: % is scaled to controls: 0 for no effect and ±100 for the full control effect
#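 Six1/Eya2 binding was read as AlphaScreen signal after compounds were pinned into GST-Six1 plus His-tagged Eya2 (5X stock 250/500 nM) in pH 8.0 Tris/NaCl/TCEP buffer, beads added, then incubated 1 h, 37 C, dark.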
# TRPML1 agonist = human mucolipin-1 channel agonism; Q9GZU1; TRPML1-expressing cells, Ca2+ dye fluorescence, FDSS; host cell line not named in the record; reference of the full effect not given here; activation, % (no concentration beside the values); 410,000 tested, 0.12% active; AID 624414; in the data active = activation above about 50%; inconclusive = about 30% to 50%; inactive = below about 30%; also: 0% is about no effect; the text of the record puts the active cut at 80%
# Target sequence (Q9GZU1 whole entry, looked up): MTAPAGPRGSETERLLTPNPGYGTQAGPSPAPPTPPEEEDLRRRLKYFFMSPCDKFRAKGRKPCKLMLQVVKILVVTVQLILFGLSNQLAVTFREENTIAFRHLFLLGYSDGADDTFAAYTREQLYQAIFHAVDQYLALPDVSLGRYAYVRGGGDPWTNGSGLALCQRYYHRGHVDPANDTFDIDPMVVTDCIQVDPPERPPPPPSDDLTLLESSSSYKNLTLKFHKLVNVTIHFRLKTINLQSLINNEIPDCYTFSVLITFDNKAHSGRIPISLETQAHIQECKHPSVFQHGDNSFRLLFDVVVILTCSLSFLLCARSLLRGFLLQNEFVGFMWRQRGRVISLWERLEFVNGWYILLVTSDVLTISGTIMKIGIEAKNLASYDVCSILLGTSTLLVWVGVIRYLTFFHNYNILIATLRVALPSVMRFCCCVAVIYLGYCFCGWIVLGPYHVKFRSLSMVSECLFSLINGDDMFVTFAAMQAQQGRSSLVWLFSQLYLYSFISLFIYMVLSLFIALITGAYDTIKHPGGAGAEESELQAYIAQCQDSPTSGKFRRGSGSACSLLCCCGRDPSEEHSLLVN
#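 Tet-induced TRPML1-DL cells, 1,500 per well, cultured overnight, were loaded with a no-wash Ca2+ dye for 45–90 min. Calcium fluorescence was recorded on the FDSS for 110 s after compound addition, before the EC80 agonist (4 uM 54-4) was added.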
# TRPML1 blocker = human mucolipin-1 channel inhibition; Q9GZU1; TRPML1-inducible cells, Ca2+ dye fluorescence, FDSS; active compounds read low; inhibition of EC80 agonist-evoked calcium signal; activity change, negative = inhibition, % (no concentration beside the values); 390,000 tested, 0.02% active; AID 624415; in the data active means activity change below about -50%; inconclusive means about -30% to -50%; inactive means above about -30%;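 also: stimulus is agonist 54-4 at its EC80 concentration; % is scaled to controls: 0 for no effect and ±100 for the full control effect; compound concentration not given in the record; the text of the record puts the active cut at -80%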
#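 Calcium fluorescence in TRPML1-DL cells induced overnight with Tet: a 110 s read after compound pin addition, then a 110 s antagonist read after challenge with 54-4 at 4 uM final (EC80).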
# D2 agonist = agonists of human D2 dopamine receptor (beta-arrestin) | activation, % (test concentration not listed) | 360,000 tested, 0.084% active | DiscoveRx PathHunter D2 beta-arrestin, luminescence, 90 min; 100% = 57 uM dopamine signal; in the data active = activation above about 40%; inconclusive = about 15% to 40%; inactive = below about 15%; also: compound concentration not given in the record; the text of the record calls up to 30% inactive
#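 Agonist mode: compounds alone added to overnight-plated D2 PathHunter cells for 90 min at 37 C, with 57 uM final dopamine (EC100) defining full response. Beta-arrestin recruitment detected by chemiluminescent reagent, read after 1 h at ambient temperature.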
# PINK1 expr mod = PINK1 expression modulation. PINK1 immunofluorescence, high-content cytometry, 24 h. Potency, µM (series often up to 76.6 µM), for inactives: top-dose activation (PINK1 increase), hits mostly activators. 410,000 tested, 0.2% active. AID 624263; active = well fitted activation curve with a large enough effect; inconclusive = small, poorly fitted or top-dose-only effect; inactive = flat fitted curve, though single readings scatter; cell line not stated here;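 also: potency is read from the fitted curve at half-maximal effect; % of control where 0% means no effect; nearly all actives have a fitted effect of over 65% in size; a mitochondrial uncoupler was the plate control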
#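 Stable cell line treated 24 h with compounds at 5 concentrations (CCCP controls), then fixed and immunostained for PINK1 plus nuclear and cell stains; PINK1 immunofluorescence quantified by laser-scanning microplate cytometry.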
# * = called active by the depositor; ? = inconclusive; . = not tested or not shown; & = joins results of further samples; ! = repeats disagree; [ ] = remark or other dose.
mol,D2 potentiator,Six1-Eya2 inh,TRPML1 agonist,TRPML1 blocker,D2 agonist,PINK1 expr mod
CCOc1ccc(NC(=O)C2=C(C)C(=O)OC23CCC(C)CC3)cc1 (configuration not stated),-1.7,-2.1,0.2&-0.1,13.6&15.9,4.0,0.2%&4.0%
COc1ccc(-c2nnc(SCC(=O)NCc3cccs3)n2CC(C)C)cc1,-2.1,9.3,1.0,30.2,-2.2,-1.0%
Cc1noc(C)c1COc1ccccc1C(=O)NC1CCC(C)CC1 (configuration not stated),-8.5,-3.9,0.3,1.3,-1.6,-0.7%
COC(=O)CCCNC(=O)CCc1nnc(-c2ccc(-c3ccccc3)cc2)o1,-1.7,3.1,3.6,19.3,1.2,-0.5%
Cn1cccc1Cc1nnc(SCC(=O)NCc2ccc(F)cc2)n1-c1ccc(F)cc1,-4.5,-0.4,0.5,0.2,-5.6,1.6%
CCN(C[C@H]1N[C@@](Cc2ccccc2)(C(=O)OC)[C@H]2C(=O)N(Cc3ccccc3)C(=O)[C@@H]12)C(=O)Nc1ccc(F)cc1,-4.8,0.0,3.8,11.5,-1.3,1.9%
COc1ccc2cc3cc(C(=O)NCc4ccc5c(c4)OCO5)oc3nc2c1,9.1,-9.6,-0.6,16.6,-0.3,3.4%
CC1CCCN(c2c3c(nc4ccccc24)CCCC3)C1 (configuration not stated),-8.7,9.2,-0.4,3.3,-0.1,?
COc1ccccc1CNC(=O)Cn1nc(C(F)(F)F)cc1C,-2.6,6.8,2.6,-4.0,1.3,0.7%
CCc1cccc(C)c1NC(=O)C1CCCO1 (configuration not stated),-25.6,13.3,-0.9,-1.0,-2.9,0.8%
Cc1cccc(OCc2cc(-c3ccccc3)no2)c1C,-9.4,62.5,4.4,13.5,1.0,7.2%
Cc1ccc(NC(=O)Cn2c(=O)n(CCCC(=O)NCc3ccco3)c(=O)c3ccccc32)cc1,-6.5,3.5,0.0,-6.5,0.2,13.7%
CN(C)c1ccc(S(=O)(=O)NCC(=O)NCc2ccccc2)cc1[N+](=O)[O-],-5.4,7.9,4.1,6.4,-4.3,3.0%
COC(=O)c1ccccc1NC(=O)CSCC(=O)Nc1ccc(F)cc1,-10.0,-0.2,-0.2,-2.2,2.9,24.2%[38.3 µM]
CCC(=O)N1CCc2cc(Br)cc(S(=O)(=O)N3CCC(C(=O)NCCCOC(C)C)CC3)c21,-2.2,-18.8,0.5&5.3,51.6&15.5,5.3,0.4%&2.2%
COCCNCCCOc1ccc(C)cc1Br,-14.2,7.3,0.2,-8.3,0.5,-0.6%
Cc1ccc(NC(=O)COC(=O)c2cccc(S(=O)(=O)N3CCCCCC3)c2)cc1,-2.5,12.6,0.2,-4.9,0.5,0.1%
CC(C=NNc1ccc([N+](=O)[O-])cn1)=Cc1ccccc1,2.4,8.8,1.0,-2.9,-0.7,28.2µM*
Cc1onc(-c2ccccc2)c1C(=O)NC(C)c1ccccc1 (configuration not stated),-0.2,22.5,1.5,12.8,12.1,0.5%
COc1ccc(C(=O)CN2C(=O)NC(C)(c3ccc(C)cc3)C2=O)cc1OC (configuration not stated),21.2,-4.5,2.7,-10.0,4.1,-0.3%
Cc1oc2c(cc(NS(=O)(=O)c3ccc(F)cc3)c3ccccc32)c1C(=O)OCc1ccccc1,.,.,-0.9,24.5,.,-0.3%
COc1cc(CN2C[C@@H](CO)O[C@@H](n3cnc4c(NC5CCCC5)ncnc43)C2)cc(OC)c1OC,-3.2,-3.9,0.2,3.1,-1.6,0.0%
CCC1C(C#N)=C(SCC(N)=O)NC2=C1C(=O)CC(C)(C)C2 (configuration not stated),-4.1,-5.4,-0.2,3.4,1.4,-0.8%
Cn1c(N)c(C(=O)COC(=O)c2cccs2)c(=O)n(C)c1=O,-3.2,-1.8,-0.1,10.6,-1.7,0.2%
Cc1cc([N+](=O)[O-])c(C(C)(C)C)cc1N,-6.3,5.9,-0.2,18.6,-1.6,1.8%

# In the list so far, these have a thiophene ring, fused or not:
mol,D2 potentiator,Six1-Eya2 inh,TRPML1 agonist,TRPML1 blocker,D2 agonist,PINK1 expr mod
COc1ccc(-c2nnc(SCC(=O)NCc3cccs3)n2CC(C)C)cc1,-2.1,9.3,1.0,30.2,-2.2,-1.0%
Cn1c(N)c(C(=O)COC(=O)c2cccs2)c(=O)n(C)c1=O,-3.2,-1.8,-0.1,10.6,-1.7,0.2%

# Additional compounds follow:
mol,D2 potentiator,Six1-Eya2 inh,TRPML1 agonist,TRPML1 blocker,D2 agonist,PINK1 expr mod
O=C(Cn1cnc2ccccc2c1=O)Nc1nc2ccccc2s1,-2.4,5.5,0.9,2.8,-3.0,1.0%
CNC(=O)COC(=O)CNC(=O)c1cc(Cl)cc([N+](=O)[O-])c1,4.6,6.7,0.8,-5.8,11.3,0.8%
CC1CCN(CC(O)COC2CCC(C(C)(C)C)CC2)CC1 (configuration not stated),-34.2,0.5,0.9,8.0,-3.8,1.3%
Nc1nc(NCc2ccccc2)nc(Nc2ccc(F)cc2)c1[N+](=O)[O-],-4.1,-1.1,0.7,25.4,-0.9,1.4%[38.3 µM]
Cc1cc(C(=O)CN2C(=O)c3ccccc3C2=O)c(C)n1Cc1cccs1,-4.0,-11.5,0.9,-12.1,-2.4,12.9%[38.3 µM]
COc1cccc(OCC(O)CO)c1 (configuration not stated),-14.4,1.8,-0.1,6.6,-2.4,5.0%[38.3 µM]
CCOC(=O)C(=O)N(C)c1c(CC)nc2c(OCc3ccc(OC)cc3)cccn12,-3.4,-7.7,-0.6,.,-2.6,1.5%
COc1ccc(-c2cc3ccc(O)c(CN4CCOCC4)c3oc2=O)cc1,.,.,3.8,52.1,.,-0.8%
O=C(Cn1c(=O)[nH]c2ccsc2c1=O)NC1CCCCC1,-9.5,3.0,-0.3,4.2,-3.3,.
COc1ccc(OC)c(CN2CCN(c3ccc(S(=O)(=O)N4CCCC4)cn3)CC2)c1,-13.4,-23.9,0.1,0.9,-2.2,0.5%
CN(Cc1ccccc1)S(=O)(=O)c1ccc(NC(=S)NC(=O)C(C)(C)C)cc1,-10.5,-14.4,0.4,0.4,-4.1,7.3%
OCCNc1nc2ccccc2n1CC(O)c1ccccc1 (configuration not stated),-0.1,4.8,-0.2,-3.2,-0.2,2.4%
CN1C(=O)C(CC(=O)Nc2ccccc2)S/C1=N/c1nccs1 (configuration not stated),-0.1,-0.2,5.9,16.0,-1.2,-1.0%
Cc1ccc(C(=O)Nc2oc(-c3ccccc3)cc2C#N)cc1,-15.9,-5.9,0.7,7.6,-3.8,?
CCCn1c(SCC(=O)O)nc2ccccc21,-0.2,1.4,-0.6,18.8,-0.9,-2.7%[38.3 µM]
O=C(C1CCCN(S(=O)(=O)Cc2ccccc2)C1)N1CCCCC1 (configuration not stated),-6.4,3.0,0.0,-17.3,-2.0,-2.8%
C=CCN(CC=C)CCCOc1ccc(Br)cc1Cl,-18.1,-0.5,-0.8,-12.4,-1.6,1.0%
CCOCCCNC(=O)C(c1ccc(OC)cc1)N(Cc1ccc2c(c1)OCO2)C(=O)c1ccccc1O (configuration not stated),-8.3,-6.8,1.1&1.3,7.4&6.3,0.7,2.0%&-1.1%
CCSc1nc2c([nH]1)c(=O)n(C)c(=S)n2C,-6.7,-7.2,0.1,-3.5,1.7,-0.4%
COc1ccc(CN(CCCN2CCOCC2)S(=O)(=O)N(C)C)cc1OC,7.7,11.9,1.2,-4.8,0.9,-1.0%
C[C@H]1CCC/C=C/[C@@H]2C[C@H](O)C[C@H]2[C@H](O)[C@H](S(=O)c2ccc(O)cc2)CC(=O)O1 (some centres not stated),-45.8,-6.2,-0.3,-7.7,-15.6,-2.0%
Fc1ccc(-c2cc(-c3nc(-c4cccc(Cl)c4)no3)[nH]n2)cc1,.,.,-0.8,-0.8,.,0.9%
COc1ccc(OC)c(C(C)NS(=O)(=O)c2cccs2)c1 (configuration not stated),-2.5,3.5,0.6,-4.6,-0.7,1.8%
COc1cc(/C=C2\CC/C(=C\c3cc(OC)c(OC)c(OC)c3)C2=O)cc(OC)c1OC,9.1,6.4,0.0,3.5,-2.2,27.3%
COc1ccc(NC(=O)CS(=O)(=O)c2cn(CC(=O)N3CCOCC3)c3ccccc23)cc1OC,-3.3,-0.8,0.5,-2.6,12.7,1.4%
Cn1cnc(C(=O)N2CCc3ccccc3C2)c1C(=O)N1CCc2ccccc2C1,-4.5,-2.4,-0.5,2.4,-5.9,0.0%
COc1ccc(C(=O)NNC(=O)c2cccc(S(=O)(=O)N3CCOCC3)c2)cc1,-4.0,-1.0,0.7,-8.1,1.9,-1.7%
COc1ccc(CNC(=O)C(c2ccco2)N(C(=O)c2snc(C(N)=O)c2N)c2ccccc2OC)cc1 (configuration not stated),-7.9,15.0,0.9,-6.0,-7.4,7.8%
Cc1c(NC(=O)CCCCCN2C(=O)C3C4C=CC(C4)C3C2=O)c(=O)n(-c2ccccc2)n1C (configuration not stated),-3.5,-2.9,-0.3,2.8,4.5,-0.4%
Cc1cccc(C(=O)NCC(=O)N2CCN(S(=O)(=O)/C=C/c3ccccc3)CC2)c1,3.8,2.7,1.5,7.1,-0.1,1.9%
CN1C(c2ccccc2)CC(=NO)CC1c1ccccc1 (configuration not stated),-4.8,-8.2,-1.7,-5.0,7.1,4.8%
Cc1ccc(F)cc1CNC(=O)c1cc(COc2ccc3ncccc3c2)on1,5.0,-9.4,0.0,9.5,2.1,4.9%
COc1ccc(CC(=O)NNS(=O)(=O)c2ccc([N+](=O)[O-])cc2)cc1OC,2.8,-1.2,0.3,49.8,-1.4,-1.8%
COc1ccc(Cl)cc1C(=O)O/N=C(\N)c1ccccn1,62.5*!,6.3,.,.,?,-0.3%
COc1ccc(C(O)c2ncc(-c3ccccc3C)[nH]2)cc1F (configuration not stated),-1.4,-1.7,-0.7,.,-3.9,0.6%
c1ccc(CCCN2CCN(c3ccccc3)CC2)cc1,-5.5,-9.8,-0.7,-27.5,12.1,3.3%
Cc1c(/C(O)=C2/C(=O)C(=O)N(CCN3CCOCC3)C2c2cccnc2)cnn1-c1ccccc1 (configuration not stated),-3.9,5.2,-0.4,-8.3,2.1,-1.5%

# One compound at a time (already shown). Order of values: D2 potentiator | Six1-Eya2 inh | TRPML1 agonist | TRPML1 blocker | D2 agonist | PINK1 expr mod
# COc1ccc(C(O)c2ncc(-c3ccccc3C)[nH]2)cc1F (configuration not stated) reads -1.4 | -1.7 | -0.7 | . | -3.9 | 0.6%
# COc1ccc(C(=O)NNC(=O)c2cccc(S(=O)(=O)N3CCOCC3)c2)cc1 reads -4.0 | -1.0 | 0.7 | -8.1 | 1.9 | -1.7%
# c1ccc(CCCN2CCN(c3ccccc3)CC2)cc1 reads -5.5 | -9.8 | -0.7 | -27.5 | 12.1 | 3.3%
# Cc1ccc(F)cc1CNC(=O)c1cc(COc2ccc3ncccc3c2)on1 reads 5.0 | -9.4 | 0.0 | 9.5 | 2.1 | 4.9%
